Screens from PubChem BioAssay.
Calb FLC: C. albicans growth inhibition with fluconazole, primary screen, CaCi-2 strain, Alamar Blue fluorescence. C. albicans CaCi-2 (fluconazole-resistant clinical isolate) + fluconazole, 48 h. growth inhibition, % (concentration not given with the values). 0.57% of 300,000 active;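 active means most replicates above 75%; inconclusive means exactly half above 75%; inactive means most below 75%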;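 further: all wells also contain fluconazole at 8 µg/ml as a sub-toxic cotreatment; 0% = median of DMSO wells and 100% = median of geldanamycin control wells; wells of about 8 µL received 7.5 nL stock; the first replicate is given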
T cruzi inh: inhibitors of intracellular T. cruzi growth, primary screen, luminescence, NIH3T3 host cells. T. cruzi beta-gal in NIH3T3, 90 h. 1.4% of 300,000 active. inhibition, % (test concentration not listed). AID 1885, 2009;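 active means mean inhibition across valid replicates above about 55%, limit read from the data; inconclusive means mean below that limit but half or more replicates reach it; inactive means mean below it, under half of replicates reach it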;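 further: signal also drops with host cell toxicity which is not excluded here; 0% = plate median of DMSO wells and 100% = zero luminescence signal; higher percent means less beta-gal luminescence so fewer parasites; stock transfer was 50 nL into about 50 µL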
RanGTP-Impb inh: inhibitors of RanGTP-importin-beta interaction, primary screen, biochemical, FRET, CFP-Ran, YFP-importin-beta, homogeneous; cell-free CFP-Ran/YFP-importin-beta FRET ratio; inhibition, % (concentration not given with the values); 1.1% of 300,000 active;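 active means most replicates above 15%; inconclusive means exactly half above 15%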;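 further: 0% = DMSO wells and 100% = Ran loaded with GDP instead of GTP; wells of about 40 µL received 100 nL stock; the first replicate is given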
Vif TR-FRET: inhibitors of Vif binding to APOBEC3G peptide, primary screen, biochemical, TR-FRET, GST-Vif 1-94, biotin-A3G peptide, dose response retest (AID 1117319) | Virion infectivity factor (Human immunodeficiency virus type 1 group M subtype B (isolate … | TR-FRET GST-Vif / biotin-A3G peptide binding; higher % means a stronger effect; test concentration not given here; strong numbers were not always called active | one-dose inhibition, %; IC50 in µM for titrated hits | 0.57% of 260,000 active;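 active means above the screen mean plus three standard deviations and confirmed in dose response; inconclusive means results disagree or hit not tested in dose response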;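 further: Vif residues 1-94 fused to GST binding biotinylated APOBEC3G peptide 110-148; 0% = full assay without inhibitor and 100% = GST in place of GST-Vif; retest series ran down from 100 µM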
Beta apoptosis: inhibitors of cytokine-induced beta cell apoptosis, primary screen, luminescence. protection from apoptosis, % (no concentration beside the values). AID 435005, 2010. INS-1E cytokine-induced death, ATP luminescence, 48 h; percent of positive-control rescue, neutral wells zero. 0.8% of 300,000 active;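 active means all replicates at 75% or more, or half of them and the mean; inconclusive means half reach 75% but not the mean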;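 further: 0% = cytokine-treated negative control wells and 100% = positive control rescue; higher means more ATP so stronger rescue from cytokine killing; wells of about 40 µL received 100 nL stock; the first replicate is given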
rRNA inh HTS: reduced GFP signal of wild-type E. coli, primary screen, bacterial rRNA inhibitor project, GFP/RFP fluorescence, OD600, single point | GFP signal change (wild-type ribosome), % (concentration not given with the values) | E. coli WT GFP vs humanized-ribosome RFP mutants, 24 h; hits give low values; DMSO median 0, no signal -100 | 1.6% of 350,000 active;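 active means significant combined selectivity score with lowered wild-type GFP, culture density cut under 30%, mutant RFP and density less affected; inactive means any of these conditions unmet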; further: one replicate is shown; some compounds called inactive have numbers as strong as hits
AF4-AF9 inh: inhibitors of AF4 peptide binding to AF9, primary screen, biochemical, AlphaScreen, biotin-AF4 peptide, FLAG-AF9, single point | Protein AF-9 (Homo sapiens), P42568 | inhibition, % at 10 µM | 0.47% of 350,000 active | AID 651704, 2012;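 active means every replicate reaching a set inhibition limit, whatever the replicate mean, cut at about 25% in these data; inconclusive means mean inhibition reaches that limit but some replicates miss it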;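 further: 0% = plate neutral control median and 100% = total signal loss; the record names both 10 and 1 µM as test concentration; the first replicate is given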
Target sequence (P42568 whole entry, looked up): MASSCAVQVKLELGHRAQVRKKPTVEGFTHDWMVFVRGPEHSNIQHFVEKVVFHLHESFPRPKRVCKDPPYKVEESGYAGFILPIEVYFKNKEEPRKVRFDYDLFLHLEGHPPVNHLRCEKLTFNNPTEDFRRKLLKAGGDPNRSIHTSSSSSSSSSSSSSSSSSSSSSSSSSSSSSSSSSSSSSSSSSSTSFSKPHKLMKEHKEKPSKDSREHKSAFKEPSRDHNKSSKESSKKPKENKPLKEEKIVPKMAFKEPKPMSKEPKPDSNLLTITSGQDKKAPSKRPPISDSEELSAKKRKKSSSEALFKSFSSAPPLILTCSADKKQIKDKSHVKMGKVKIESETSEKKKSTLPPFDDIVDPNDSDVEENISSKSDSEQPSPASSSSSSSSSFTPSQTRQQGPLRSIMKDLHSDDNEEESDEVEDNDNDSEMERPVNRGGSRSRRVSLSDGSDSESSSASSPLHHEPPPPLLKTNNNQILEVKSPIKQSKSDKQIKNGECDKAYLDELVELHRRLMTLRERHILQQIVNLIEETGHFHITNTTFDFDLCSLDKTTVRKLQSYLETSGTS
Bfl-1 A1 inh: caspase 3/7 activation in MEF A1-2A-BIM cells, primary screen, A1 inhibitor project, cell-based, luminescence, HTS. Caspase-Glo 3/7 luminescence, 3 h; percent of clofoctol response, vehicle zero. caspase activation, % (no concentration beside the values). 0.066% of 330,000 active. AID 2462, 2010;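 active means over half of replicate activation scores above 10%, or exactly half above 10 with the replicate mean above 10; inconclusive means replicate mean below 10 yet half the replicates above 10; inactive means over half of replicates below 10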;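 further: wells of about 30 µL received 50 nL stock; many hits fall short of the cut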
rRNA inh HTS OD600: also measured in rRNA inh HTS; calls as there; OD600 change, %; measured here: OD600 growth;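 optical density of the mix in the first replicate; 0 = DMSO median and -100 = no signal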
rRNA inh HTS RFP: also measured in rRNA inh HTS; calls as there; RFP signal change, %; measured here: RFP humanized mutant strains;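 first replicate; 0 = DMSO median and -100 = no signal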
* marks the source's active call; other numbers are inactive results; ? = inconclusive; . = not tested or not shown.

SMILES	Calb FLC	T cruzi inh	RanGTP-Impb inh	Vif TR-FRET	Beta apoptosis	rRNA inh HTS	rRNA inh HTS OD600	rRNA inh HTS RFP	AF4-AF9 inh	Bfl-1 A1 inh
CC1CCC(NC(=O)C2CC(=O)N(c3ccc4c(c3)OCCO4)C2)CC1 (stereo unspecified)	9.9	-7.7	2.8	10.9%	-2.9	5.4	10.9	0.7	-3.0	1.1
O=C(CSc1ncnc2c1cnn2CCO)Nc1cccc(C(F)(F)F)c1	-14.9	-13.8	?	-6.3%	-15.0	.	.	.	.	-0.3
O=C(c1cc2c(s1)CCC2)N1CCN(c2ccccc2)CC1	-25.8	49.3	0.9	23.1%	-1.0	.	.	.	.	0.8
CC[C@@]12C(=O)N(c3ccc(OC)cc3)C(=O)N1[C@H](c1ccc(Cl)cc1)[C@@H]1C(=O)N(C3CCCCC3)C(=O)[C@@H]12	-5.6	38.8	5.7	.	4.4	3.3	-2.4	1.9	2.5	-0.9
O=C(Nc1ccc(F)cc1)Nc1ccc(Oc2ncnc3cc(Cl)ccc23)nc1	10.4	-9.5	27.2	-13.3%	-3.9	9.2	8.6	-0.2	-3.8	0.1
CCCCC1=CC2=CC(=O)C(C)(OC(=O)CC)C(=O)C2=CN1C1CCCC1 (stereo unspecified)	3.1	2.6	1.3	?	0.0	8.2	10.6	8.2	-2.4	0.4
O=C(CSc1cccc[n+]1[O-])N1CCCc2ccccc21	4.4	-6.4	-3.1	.	-3.1	-3.7	1.7	-1.4	-0.5	0.8
O=C(CN1CCCCC1)Nc1ccc(F)c(Cl)c1	-7.2	3.8	-1.8	?	-0.1	.	.	.	.	0.1
O=C(NCc1cccs1)C1CC(=O)N(c2ccccc2)C1 (stereo unspecified)	4.8	-9.9	0.1	-3.7%	4.9	.	.	.	.	0.6
CC(=O)Nc1ccc(S(=O)(=O)Nc2cccc(-c3nc4cc(C)ccc4o3)c2)cc1	6.4	2.8	2.4	.	68.9	-17.5*	-0.6*	5.8*	-0.8	0.6
COc1ccc(CNC(=O)CN(c2cccc(OC)c2)S(C)(=O)=O)cc1	-1.1	-10.6	-2.4	-8.7%	-2.9	6.5	2.4	-7.4	-9.8	1.3
COc1ccccc1NC(=O)c1cccc(S(=O)(=O)N2CCOCC2)c1	-4.3	1.9	1.2	6.7%	-3.2	.	.	.	.	0.2
CSc1ccccc1OCc1cc(C(=O)NCCCn2nc(C)cc2C)no1	7.2	18.3	-0.1	.	1.0	-12.0	-8.5	-1.7	0.4	-0.1
COc1ccc(-c2nc(C#N)c(NCCN(C)C)o2)cc1	-6.9	-4.9	?	26.6%	.	-4.4	1.2	0.8	-4.8	-1.3
COC(=O)c1ccccc1NC(=O)c1ccc(F)cc1	-3.7	-5.2	-1.5	1.9%	5.8	1.0	7.4	-5.7	2.0	0.2
Cc1ccc(CNC(=O)C(=O)NCC2OCCCN2S(=O)(=O)c2ccc(F)cc2)cc1 (stereo unspecified)	4.4	0.8	4.8	.	-2.4	4.0	0.0	0.4	-1.3	-0.5
CC1CC(C)CN(CCCNC(=O)CN2C(=O)c3cccnc3Oc3ccc(Cl)cc32)C1 (stereo unspecified)	9.9	2.9	9.1	-2.7%	-4.5	2.6	9.9	-0.5	-2.5	2.5
Cc1cc(C(=O)COC(=O)c2ccc(NC(=O)CC#N)cc2)c(C)n1-c1ccc(OC(F)F)cc1	.	.	.	2.8%	-3.1	-7.0	-5.2	10.5	-1.8	-0.2
CCOC(=O)C1C(=O)C=C(c2ccc(C)cc2)CC1c1ccccc1 (stereo unspecified)	18.5	25.5	-0.6	.	9.7	-14.4	-33.1	-8.0	2.7	1.5
O=S(=O)(Nc1nc2ccccc2nc1NCc1ccco1)c1ccc(F)cc1	19.3	1.2	6.4	1.9%	4.2	-26.8	-27.3	-8.4	1.2	-0.1
COc1cc(OC)c(OC)cc1/C=N/NC(=O)c1cccc(S(=O)(=O)N2CCOCC2)c1	0.9	-5.9	-1.4	-6.8%	-1.3	5.5	14.9	0.6	1.3	0.2
O=c1cc(-c2ccc(O)cc2)oc2cc(O)cc(O)c12	-3.8	6.0	7.5	.	.	.	.	.	-0.9	-6.5
Cc1nnc(SCC(=O)Nc2nc(-c3ccc(F)cc3)cs2)[nH]c1=O	10.6	-26.0	2.9	.	-4.5	-34.9	-44.4	-5.8	-0.9	2.5
Cc1ccc(C[n+]2cc(-c3ccc(Cl)cc3)n3c2CCC3)cc1	-27.7	.	-2.0	-10.0%	34.7	-46.8*	-34.8*	-13.3*	2.4	-0.2
CC1CCCCN1S(=O)(=O)c1ccc2c(c1)CCN2C(=O)C1CCC1 (stereo unspecified)	-33.6	0.3	-1.7	-1.0%	5.1	.	.	.	.	0.0
CCOC(=O)C1(C)C=C(Nc2ccc(C)cc2)C(=O)N1c1ccc(C)cc1 (stereo unspecified)	-13.4	9.6	-1.3	-11.0%	0.2	5.2	-4.1	0.0	1.2	-0.5
CCc1ccc(C(=O)COC(=O)c2ccc(Cl)nc2)cc1	-15.2	-9.3	2.3	-3.8%	-2.6	10.8	9.8	-1.9	-2.5	-0.3
Cc1ccc(-c2ccc(C)c(N)c2C)c(C)c1N	-8.2	-3.1	-5.6	-2.3%	3.7	-3.5	-3.5	0.7	9.9	0.5
COC(=O)C1C(O)=C(C=NC2CCCCC2)C(=O)CC1(C)C (stereo unspecified)	-3.0	-5.1	-1.2	?	0.6	.	.	.	.	0.0
COCCN1C(=O)N[C@@H](c2cccc(C(F)(F)F)c2)[C@H](C(C)=O)[C@H]1C	-0.5	-2.2	-2.0	.	-5.5	.	.	.	.	1.4
CCN(CC)C(=O)c1ccc(-c2nnc(Nc3cccc(O)c3)c3ccccc23)cc1	32.2	12.5	4.5	.	5.3	-27.2	-22.1	-3.5	1.7	1.2
O=C(/C=C/c1ccc(F)cc1)Nc1ccc(S(=O)(=O)N2CCOCC2)cc1	3.2	6.1	0.3	.	1.4	-5.0	-9.6	3.7	-1.1	0.0
Cc1ccc(SC(C)c2nc(-c3ccncc3)no2)cc1 (stereo unspecified)	1.3	21.5	3.3	8.3%	-2.5	.	.	.	.	-0.7
CN(C(=O)CC1C(=O)NCCN1Cc1ccccc1F)C1CCOCC1 (stereo unspecified)	9.7	-13.0	4.9	.	-8.2	5.0	3.6	0.0	0.7	0.3
COc1ccc(OC)c(NC(=O)COC(=O)[C@H](Cc2ccccc2)NC(=O)c2ccco2)c1	.	.	.	.	-7.5	0.4	-4.6	1.6	4.4	-0.3
C/C(=N\NC(=O)Cc1cccn1C)c1ccco1	0.3	-2.4	-3.1	20.2%	.	21.6	3.8	3.4	-5.5	0.9
CCOC(=O)Cc1csc(NC(=O)/C=C/c2ccco2)n1	5.7	7.3	-2.0	.	-4.2	1.4	10.1	6.0	.	0.2
Cc1c(C(=O)OCC(=O)N2CC(C)CC(C)C2)oc2ccccc12 (stereo unspecified)	-2.9	-1.7	-4.4	4.4%	-11.3	3.2	0.7	-2.9	-12.5	0.4
Cc1ccc(-c2nc(C=Nc3ccccc3)c(O)o2)cc1	-16.0	5.1	-2.3	1.4%	-1.2	1.9	18.3	3.6	1.8	0.4
CCN(CC)C(=O)C1CCN(Cc2ccc(OCc3ccccc3)cc2)CC1	-24.8	24.1	-3.1	.	-4.8	9.6	5.9	3.4	-0.5	0.8
NC(=O)c1nsc(C(=O)N(c2cccc(O)c2)C(C(=O)NC2CCCC2)c2ccc(Cl)cc2)c1N (stereo unspecified)	-5.1	-14.3	-1.4	-2.2%	6.6	1.4	11.7	1.2	-0.6	0.4
O=C(NCC(=O)N1CCOCC1)c1ccc(Br)o1	29.1	-10.4	2.6	0.9%	2.4	6.8	6.0	1.2	-16.3	1.8
O=C(NCCCN1CCOCC1)c1ccc(Cl)c([N+](=O)[O-])c1	3.0	0.0	2.0	.	-3.9	17.6	11.2	-0.1	-3.2	-0.1
Nc1ccc(N2CCN(CCCCN3C(=O)C4CCCN4C3=O)CC2)cc1 (stereo unspecified)	0.1	26.8	6.8	1.34µM*	.	6.5	7.6	3.9	48.7*	0.3
COc1ccc(CNCC(O)(c2ccccc2)c2ccc(F)cc2)cc1 (stereo unspecified)	-16.6	28.3	0.4	4.4%	3.8	-11.9	-13.0	-3.4	-0.4	0.0
CCCCCN(C(=O)CCC(=O)OCC(=O)c1ccc(F)c(F)c1)c1c(N)n(CCCC)c(=O)[nH]c1=O	-2.2	-20.5	-0.4	-0.2%	0.2	2.9	9.9	-0.2	0.0	0.1
CCOc1ccc(NC(=O)CN(C)C(=O)c2cc(S(=O)(=O)N(C)C)ccc2N2CCCC2)cc1OCC	0.2	0.9	3.2	.	2.8	5.8	9.5	-0.5	2.3	0.4
Cc1nn(CC(=O)Nc2cccc(C(F)(F)F)c2)c(=O)c2cccn12	-3.1	-23.0	-2.0	.	-2.5	-3.8	-3.7	-0.3	1.1	0.5
Cc1cccc(CSc2nnc(C)c(=O)n2N)c1	-2.6	-7.8	-2.6	.	1.2	.	.	.	.	1.0
Cc1ccc(NC(=S)NC(NC(=O)c2ccccc2)C(Cl)(Cl)Cl)c(C)c1 (stereo unspecified)	-6.8	20.3	-2.3	.	2.5	.	.	.	.	-0.6
N/C(=N\OC(=O)c1ccc(Cl)cc1)c1ccn[nH]1	15.2	4.0	0.9	0.4%	3.8	0.1	5.9	2.4	-0.3	-0.7
CCOC(=O)c1sc(Nc2nc(C)cc(C)n2)nc1C	0.0	-5.3	-1.9	-1.7%	32.9	9.0	11.3	-0.4	.	-0.3
O=C(O)C1CCCCC1C(=O)Nc1ccc2c(c1)OCO2 (stereo unspecified)	7.0	5.5	1.8	-5.4%	-5.9	5.9	3.4	-1.6	6.5	1.1

Part of the list above, with bars between the fields:
structure | Calb FLC | T cruzi inh | RanGTP-Impb inh | Vif TR-FRET | Beta apoptosis | rRNA inh HTS | rRNA inh HTS OD600 | rRNA inh HTS RFP | AF4-AF9 inh | Bfl-1 A1 inh
CCCCC1=CC2=CC(=O)C(C)(OC(=O)CC)C(=O)C2=CN1C1CCCC1 (stereo unspecified) | 3.1 | 2.6 | 1.3 | ? | 0.0 | 8.2 | 10.6 | 8.2 | -2.4 | 0.4
CCc1ccc(C(=O)COC(=O)c2ccc(Cl)nc2)cc1 | -15.2 | -9.3 | 2.3 | -3.8% | -2.6 | 10.8 | 9.8 | -1.9 | -2.5 | -0.3
COc1ccc(-c2nc(C#N)c(NCCN(C)C)o2)cc1 | -6.9 | -4.9 | ? | 26.6% | . | -4.4 | 1.2 | 0.8 | -4.8 | -1.3

Not all compounds are listed; count on the stated rates, not on these rows.
